# High-throughput results deposited in PubChem BioAssay by several laboratories.
# PKD1 inh – inhibitors of human PKD1 kinase, biochemical, fluorescence polarization. 0.056% of 200,000 active. inhibition, %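 (about 10 µM by stock and volumes)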. Serine/threonine-protein kinase D1 (Homo sapiens), Q15139. PKD1 kinase fluorescence polarization assay;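 active = inhibition of 50% or more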;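 note: controls were vehicle for no effect and a reference inhibitor for full effect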
# Insulin prom inh – inhibitors of insulin promoter-driven GFP, primary screen, imaging, TRM-6 cells (human fetal islet line), eGFP reporter, cell count; 0.9% of 130,000 active; reporter expression induced with tamoxifen; inhibition, % at 2 µM;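 active = inhibition above the mean plus 3 SD, with well images judged a real hit on visual review, cut at about 60% in these data, passing the limit was not always enough; inconclusive = inhibition over the cutoff but images rejected on review; inactive = inhibition not above the cutoff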
# RGS16-Gao HTS – modulators of RGS16 binding to Galphao, primary screen, biochemical, human proteins, multiplexed bead flow cytometry | Regulator of G-protein signaling 16 (Homo sapiens) + Guanine nucleotide-binding protein … | bead-based flow cytometry RGS16-Galphao binding, fluorescence; actives lie on both sides | binding response (% of control), % at 10 µM | 0.38% of 220,000 active | AID 1441, 2008;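 active = below 25% or above 175%, edge rows of some plates excepted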;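 note: Galphao activated by GDP with aluminum fluoride before binding; 100% = wells without compound and 0% = beads without RGS; some results beyond the cut were filed as inactive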
# Target sequence (O15492 whole entry, looked up): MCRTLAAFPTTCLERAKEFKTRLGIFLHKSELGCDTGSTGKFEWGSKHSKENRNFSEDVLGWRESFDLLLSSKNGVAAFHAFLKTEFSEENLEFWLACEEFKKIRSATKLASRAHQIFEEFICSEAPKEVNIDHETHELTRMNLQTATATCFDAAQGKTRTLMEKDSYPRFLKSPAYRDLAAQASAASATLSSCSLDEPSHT
# Target sequence (P09471 whole entry, looked up): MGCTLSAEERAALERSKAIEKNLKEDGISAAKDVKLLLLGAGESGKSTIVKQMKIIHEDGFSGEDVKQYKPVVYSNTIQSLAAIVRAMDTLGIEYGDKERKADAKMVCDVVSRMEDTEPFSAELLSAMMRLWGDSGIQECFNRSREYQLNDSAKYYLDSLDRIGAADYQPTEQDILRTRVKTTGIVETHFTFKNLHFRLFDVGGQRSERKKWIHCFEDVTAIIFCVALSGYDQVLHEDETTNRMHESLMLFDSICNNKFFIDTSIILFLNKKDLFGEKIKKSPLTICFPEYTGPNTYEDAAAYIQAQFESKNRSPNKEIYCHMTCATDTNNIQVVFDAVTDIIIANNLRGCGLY
# HSV augment – enhancers of HSV replication in host cells, fold increase, host cell viability; HSV replication augmentation in cells; maximum fold increase; 0.005% of 220,000 active;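 active = peak rise of 1.5-fold or more in the series; inconclusive = self-fluorescent or not available for retest; tested in PC3 cells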;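 note: first round at 10 µM; read as green reporter fluorescence; hits show the peak of a series up to 25 µM; 1 = signal of infected wells without compound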
# GALR2 agonist – GALR2 receptor agonists, primary screen, cell-based. Galanin receptor type 2 (Homo sapiens), O43603. GALR2-expressing cells, agonist activation read-out. activation, %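 (tested at 5 µM)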. 0.48% of 140,000 active. AID 803, 2007;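 active = above mean plus 3 SD of all compounds, about 5% in these data, not always enough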;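 note: 0% = vehicle buffer wells and 100% = reference agonist at full effect; tested in CHO reporter cells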
# Target sequence (O43603 whole entry, looked up): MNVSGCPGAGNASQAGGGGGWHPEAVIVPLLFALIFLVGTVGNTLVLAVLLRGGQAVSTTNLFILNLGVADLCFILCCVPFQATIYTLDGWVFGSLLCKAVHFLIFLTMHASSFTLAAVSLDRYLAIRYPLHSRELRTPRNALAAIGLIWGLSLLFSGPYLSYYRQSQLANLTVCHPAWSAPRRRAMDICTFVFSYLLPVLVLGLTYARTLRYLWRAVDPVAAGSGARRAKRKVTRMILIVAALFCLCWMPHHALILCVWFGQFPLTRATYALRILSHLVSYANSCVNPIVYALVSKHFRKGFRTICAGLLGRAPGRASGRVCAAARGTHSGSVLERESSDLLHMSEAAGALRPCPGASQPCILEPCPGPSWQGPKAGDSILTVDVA
# Insulin prom inh cell count – second read-out of Insulin prom inh, no call of its own (marks repeat the call); normalized cell count, %; measured here: cell count, toxicity; reference of the scale not given here;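 cells exposed to compound for 48 h; stained nuclei by imaging scaled within each plate; lower means fewer cells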
# HSV augment primary fold – second read-out of HSV augment, no call of its own (marks repeat the call); fold increase; compound at 10 µM; measured here: primary screen fold increase 10 uM; tested in PC3 cells;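 GFP signal in the first replicate; 1 = infected wells without compound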
# * marks the source's active call; other numbers are inactive results; i = inactive; ? = inconclusive; · = not tested or not shown. This is a random part of the collection; any-hit rate near 1.1%.
SMILES	PKD1 inh	Insulin prom inh	Insulin prom inh cell count	RGS16-Gao HTS	HSV augment	HSV augment primary fold	GALR2 agonist
CNC(=O)COC(=O)c1nc(-n2nc(C)cc2C)ccc1Cl	-8	-10	87	108	i	0.95	-2.0
CC(=O)N1CC2(c3ccccc3)CN(C(C)=O)CC(c3ccccc3)(C1)C2=O	2	-86	90	103	i	1	·
COc1cc(NC(=O)Nc2cccc(C(C)=O)c2)cc(OC)c1OC	-3	28	170	103	i	0.81	-1.9
O=C(CSCc1ccc(Cl)cc1)NCCSCc1ccco1	-1	31	101	94	i	0.93	·
COC(=O)c1c(C)oc(C)c1S(=O)(=O)N1CCCC1	·	·	·	99	i	0.9	·
CCOc1ccc(NC(=O)c2nn(-c3ccc(OC)cc3OC)c(=O)c3ccccc23)cc1	-1	·	·	100	·	·	·
O=C(COc1cccc(NC(=O)c2ccco2)c1)c1ccccc1	3	-44	175	104	i	1	-0.8
COc1ccccc1N1C(=O)S/C(=C\c2cc(C)n(C)c2C)C1=O	-10	-94	64	103	i	1.1	·
O=C(NCSc1ccnc(SCNC(=O)c2ccc(F)cc2)n1)c1ccc(F)cc1	2	-33	123	101	i	0.9	-2.9
CN(NC(=O)NN)c1ncc(C(F)(F)F)cc1Cl	-5	48	127	103	i	1.1	-4.1
Cc1ccc(CNc2ncnc(N)c2[N+](=O)[O-])cc1	-4	16	125	99	i	0.88	·
COc1ccc(NC(=O)CCN2CCCCC2)cc1	5	50	126	100	i	1.1	0.9
O=C(CN(C1CC1)S(=O)(=O)c1ccc(S(=O)(=O)NC2CCCCC2)cc1)Nc1ccccc1	8	-13	88	101	i	0.85	-2.8
Cc1cc(Cl)ccc1OC(C)C(=O)Nc1ccc([N+](=O)[O-])cn1 (centres undefined)	-8	-26	108	117	i	1	-1.4
NC(=O)c1ncn([C@@H]2O[C@H](CO)[C@@H](O)[C@H]2O)c1O	-9	14	81	107	i	0.99	-0.2
O=C(NCc1ccccn1)C1CC(c2ccccc2Cl)=NO1 (centres undefined)	-5	·	·	105	i	1	·
O=C(Nc1ccc2nc3ccccc3nc2c1)c1ccc(Br)cc1	-4	·	·	106	i	1.1	1.1
Cc1cccnc1CCNC(=O)CC1C(=O)NCCN1CC1CCCCC1 (centres undefined)	-6	-4	158	104	i	0.97	·
CC(=O)N1CCN(C2c3cccc4cccc(c34)C2NS(=O)(=O)c2ccccc2)CC1 (centres undefined)	-5	14	47	101	i	1.2	-0.8
CCNC(=S)NCc1ccco1	-14	-26	74	119	i	1.1	0.3
O=C(O)CCCC(=O)Nc1ccc(Sc2ccc([N+](=O)[O-])cc2)cc1	4	10	78	86	i	1	-0.2
C=CCn1c(Cc2ccccc2)n[nH]c1=S	-1	20	85	9.3*	i	1.1	·
CCC(C)(C)NC(=O)C(c1ccc(OC)cc1)N(Cc1ccco1)C(=O)CCC(=O)Nc1cc(C)on1 (centres undefined)	-4	15	110	99	i	0.99	-0.8
O=C(c1ccc(Cl)c(Cl)c1)N1CCC(=O)N(C(COCc2ccccc2)Cc2ccccc2)CC1 (centres undefined)	3	-14	116	102	i	0.9	-2.5
O=C(CSc1nnnn1-c1ccccc1)Nc1ccc(N2CCOCC2)cc1	-1	·	·	97	i	1	·
CCCCN(CCCC)S(=O)(=O)c1ccc(N2CCCC2=O)c([N+](=O)[O-])c1	9	27	82	·	i	1.2	0.0
O=C(NNS(=O)(=O)c1cccc(Cl)c1Cl)c1cccc(S(=O)(=O)N2CCOCC2)c1	-3	-67	138	99	i	1.2	-0.6
CC(C)OC(=O)CSc1nc(N)c(C#N)c(-c2cccs2)c1C#N	-2	·	·	65	i	0.94	-1.6
COc1ccccc1N1C(=O)CC(Sc2ncccc2C(=O)O)C1=O (centres undefined)	0	-18	114	108	i	1.1	-2.3
CC(CC(=O)C1C(C)C=CCC1(C)C)NNC(N)=O (centres undefined)	1	·	·	106	i	0.74	·
CCc1nc2ccccc2c(C(=O)OC2CCCCC2=O)c1C (centres undefined)	-6	-33	93	113	i	0.85	·
CC1=C(c2ccccc2)C(=S)NC(C)(C)C1	·	·	·	101	i	1.1	·
CCn1ncc(C2=NOC(C(=O)Nc3c(C)n(C)n(-c4ccccc4)c3=O)C2)c1C (centres undefined)	-14	·	·	107	i	1.1	-1.4
CCCC(=O)Nc1nc(-c2ccc3c(c2)OCCO3)cs1	-3	·	·	86	i	0.92	-2.1
CC(Oc1cccc(Cl)c1)C(=O)NCc1ccc(S(N)(=O)=O)cc1 (centres undefined)	4	·	·	91	i	0.93	·
Cc1cc(/C=C2\NC(=S)N(C)C2=O)ccc1N1CCCC1	0	·	·	104	?	·	·
COCC(=O)N(C)c1nnc(-c2ccc([N+](=O)[O-])cc2)s1	-4	·	·	99	i	0.78	-1.8
Cc1ccccc1NC(=O)COC(=O)c1ccc(S(C)(=O)=O)c([N+](=O)[O-])c1	6	-29	78	106	i	1	·
CCOc1ccccc1C(=O)N1CCC(n2nnc3cc(C)ccc32)CC1	-4	·	·	102	i	0.82	-1.8
CC1CCN(c2c(NCC3CCC(C(=O)NCCc4ccc(Cl)cc4)CC3)c(=O)c2=O)CC1 (centres undefined)	·	·	·	102	i	1.2	·
COc1ccc(S(=O)(=O)N2c3ccccc3OCC2C)cc1 (centres undefined)	-3	-245	9	114	i	0.68	·
COc1ccc(-c2[nH]c(-c3ccccc3)nc2SCC(=O)NCc2ccco2)cc1OC	-10	·	·	103	i	0.82	-2.6
CCn1c(SCC(=O)Nc2ccc(-c3nc4ccc(C)cc4s3)cc2)nnc1-c1ccccc1	-6	-6	98	393	i	0.78	1.7
O=C(NNS(=O)(=O)c1ccc(F)cc1)c1sccc1-n1cccc1	-9	·	·	104	i	1	·
Cc1ccc(CCN2CC(C(=O)NCCCN3CCOCC3)CC2=O)cc1 (centres undefined)	-9	-14	90	82	i	0.98	0.7
O=C(COc1cccnc1[N+](=O)[O-])NCCc1ccc(Cl)cc1	-9	47	71	115	i	1	·
CCN(C(=O)CCc1nc(-c2ccc(OC)cc2)no1)c1cc(OC)ccc1OC	-8	-39	138	89	i	0.81	-0.5
Cc1c(C(O)CN2CCN(Cc3ccc4c(c3)OCO4)CC2)c2ccccc2n1C (centres undefined)	-11	6	120	221	i	0.86	1.0
CN(C)CCCNCCNC(=O)/C=N\O	2	·	·	83	i	0.97	-2.6
COc1cc(-c2nc(S(=O)(=O)c3ccc(Cl)cc3)c(N3CCOCC3)o2)cc(OC)c1OC	-8	-114	78	102	i	0.89	-0.4
Cc1cccc(N(C(=O)c2nsc(Cl)c2Cl)C(C(=O)NC2CCCC2)c2ccc(O)cc2)c1 (centres undefined)	-11	-97	117	105	i	0.9	0.8
COc1ccc2nc(NC(=O)C3CCN(S(=O)(=O)c4cnc[nH]4)CC3)sc2c1	-2	·	·	109	i	0.9	0.0
CCCC(C(=O)NC1CCCC1)N(CCCN1CCOCC1)C(=O)c1snc(C(N)=O)c1N (centres undefined)	6	14	71	106	i	0.89	-0.3
COCCNC(=O)c1c(N)n(/N=C/c2ccc(F)cc2)c2nc3ccccc3nc12	·	·	·	100	i	0.84	·
CCOP(=O)(C1=C(O)C(=O)C(C(C)(C)C)=CC1=O)c1ccccc1 (centres undefined)	1	67*	103*	106	i	0.96	·
COc1ccc(Nc2nnc(SCC(=O)NC(=O)Nc3ccc4c(c3)OCCO4)s2)cc1	-6	·	·	89	i	0.95	·
NS(=O)(=O)c1ccc(CCNC(=O)CN2CCN(c3ccc(F)cc3)CC2)cc1	-12	3	138	104	i	0.96	0.7
CCC(=O)N1CCc2cc(S(=O)(=O)NC(C(=O)NCc3ccc(C)cc3)C(C)C)ccc21 (centres undefined)	-13	·	·	98	i	0.81	-0.5
CCCc1nc2c(sc3nc4c(cc32)COC(C)(C)C4)c(=O)o1	3	·	·	91	i	0.98	·
O=C(CC1(O)C(=O)Nc2ccccc21)c1ccc2c(c1)OCO2 (centres undefined)	-5	33	120	98	i	0.92	0.9

# Among those listed so far, 3 contain an NH in an aromatic ring.
SMILES	PKD1 inh	Insulin prom inh	Insulin prom inh cell count	RGS16-Gao HTS	HSV augment	HSV augment primary fold	GALR2 agonist
C=CCn1c(Cc2ccccc2)n[nH]c1=S	-1	20	85	9.3*	i	1.1	·
COc1ccc(-c2[nH]c(-c3ccccc3)nc2SCC(=O)NCc2ccco2)cc1OC	-10	·	·	103	i	0.82	-2.6
COc1ccc2nc(NC(=O)C3CCN(S(=O)(=O)c4cnc[nH]4)CC3)sc2c1	-2	·	·	109	i	0.9	0.0

# Some of the entries above, set out differently:
# Value order – PKD1 inh	Insulin prom inh	Insulin prom inh cell count	RGS16-Gao HTS	HSV augment	HSV augment primary fold	GALR2 agonist
- CCn1ncc(C2=NOC(C(=O)Nc3c(C)n(C)n(-c4ccccc4)c3=O)C2)c1C (centres undefined)
 : -14	·	·	107	i	1.1	-1.4
- CCCC(=O)Nc1nc(-c2ccc3c(c2)OCCO3)cs1
 : -3	·	·	86	i	0.92	-2.1
- CC(Oc1cccc(Cl)c1)C(=O)NCc1ccc(S(N)(=O)=O)cc1 (centres undefined)
 : 4	·	·	91	i	0.93	·

# Next results:
SMILES	PKD1 inh	Insulin prom inh	Insulin prom inh cell count	RGS16-Gao HTS	HSV augment	HSV augment primary fold	GALR2 agonist
CN(C)CCNC(=O)c1ccc(Cl)s1	-6	-24	99	131	i	0.95	-2.2
COc1ccc(N2Cc3cccc(C(=O)O)c3C2=O)cc1	-6	·	·	98	i	1	-0.3
OCC1CCCN(C(=S)NCCc2ccccc2)C1 (centres undefined)	-1	14	178	108	i	1	-2.7
COc1c(C)cc(Br)cc1C(=O)Nc1ccccc1C	-2	·	·	118	i	0.95	·
CC(=O)N1CCN(Cc2nc3cc(NC(=O)c4ccccc4Cl)ccc3n2C)CC1	1	7	103	109	i	1	·
O=C(NCc1ccc(Cl)cc1)C1CCCN(S(=O)(=O)c2cnc[nH]2)C1 (centres undefined)	-8	·	·	104	i	0.91	-1.2
O=C(OCc1cccc([N+](=O)[O-])c1)c1cnccn1	-5	·	·	96	i	1	·
Cc1ncoc1C(=O)N1CCc2c([nH]c3ccccc23)C1C(C)(C)C (centres undefined)	1	·	·	99	i	0.87	·
O=[N+]([O-])c1cc2oc3c(c2c(C=NCc2ccccc2)c1O)CCCC3	0	31	91	93	i	1.3	-0.4
CC(C)(C)N=C1NC(=NC(C)(C)C)c2ccccc21	-7	-39	149	95	i	0.78	0.3
COc1cnc(-c2ccccn2)nc1Oc1ccc(F)cc1F	1	·	·	101	i	1	·
Cc1ccc(-c2nnn(CC(=O)N(CC3CCCO3)C(C(=O)NCC3CCCO3)c3ccc(F)cc3)n2)o1 (centres undefined)	-7	24	136	107	i	0.82	-1.6
CCOC(=O)N1CCN(C(=O)C2CCN(C(=O)c3cc4sccc4n3CC)CC2)CC1	-7	·	·	104	i	0.87	-1.1
Cc1ccc2c(CSc3nnc(N)s3)cc(=O)oc2c1	1	-2	80	55	i	0.87	-1.9
CC1(C)C(=O)Nc2ccccc2N1C(=O)COC(=O)c1cc([N+](=O)[O-])ccc1N	6	·	·	101	i	0.83	-1.4
Cn1c(CCNC(=O)c2ccc(Cl)c(Cl)c2)nnc1SCc1ccc(Cl)c(Cl)c1	-11	-33	70	100	i	0.8	-3.3

# Part of the list above, showing only PKD1 inh, Insulin prom inh cell count and RGS16-Gao HTS.
structure,PKD1 inh,Insulin prom inh cell count,RGS16-Gao HTS
O=[N+]([O-])c1cc2oc3c(c2c(C=NCc2ccccc2)c1O)CCCC3,0,91,93
COc1c(C)cc(Br)cc1C(=O)Nc1ccccc1C,-2,·,118
CN(C)CCNC(=O)c1ccc(Cl)s1,-6,99,131
